Source: PubChem
NPYLR7 agonist – activates Aedes aegypti NPYLR7 receptor | AID 1259423 | activation, % at 10 µM | HEK293T NPYLR7/Galpha15, GCaMP6s calcium fluorescence | 270,000 tested, 0.15% active; in the data active means activation above about 40%;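 further: 0% = vehicle and 100% = reference agonist at the receptor; some compounds past the cut are filed as inactive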
NPYLR7 agonist max-min – also measured in NPYLR7 agonist; calls as there; activation, %; measured here: Max-Min RFU normalised activation; some inactives read as strong as hits;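 span of the calcium signal over five minutes; 0% = vehicle and 100% = native peptide agonist; compound fluorescence can raise it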
* marks the source's active call; other numbers are inactive results; & = joins results of further samples.

SMILES | NPYLR7 agonist | NPYLR7 agonist max-min
O=C(CCN1CCCC1c1ccccc1)NC1CCCC1 (stereo not drawn) | 2 | 1
COc1ccc(Nc2cc(C)nc3cc(C(F)(F)F)ccc23)cc1OC | 8 | 6
N#C/C(=C\c1ccc(N2CCCCC2)c([N+](=O)[O-])c1)c1nn(-c2ccccc2)c(N)c1C#N | 0 | -3
COCCNC(=O)CCC1CCN(C(=O)c2cccc(-c3ncc[nH]3)c2)CC1 | 13 | 9
CCOC(=O)C1CCCN(CC(=O)N2N=C(c3ccc(OC)cc3OC)CC2c2ccc(C)cc2C)C1 (stereo not drawn) | 1 | 9
COc1cc(OC)c(OC)cc1/C=N\NC(=O)CSc1nc2ccccc2[nH]1 | 7 | 6
CCn1c(SCc2ccc(C(=O)NCc3ccco3)cc2)nnc1-c1ccccc1Cl | -2 | 0
Cc1ccc(C2CC(=O)Nc3c2c(C)nn3-c2ccc(Cl)nn2)cc1 (stereo not drawn) | -18 | -22
CCC(C(=O)NC1CCN(c2ccccc2C(=O)NCC2CCCCC2)CC1)c1ccccc1 (stereo not drawn) | -1 | 0
NC1CCCN(C(=O)CCc2nc(-c3cccnc3)no2)CC1 (stereo not drawn) | 4 | 4
COc1ccc(C(=O)c2c(N)c(C(=O)Nc3ccc(C)cc3C)c3ccccn23)cc1 | -6 | -9
Cc1cc(C(=O)N2CCCCC2CCOc2ccc(CN(C)Cc3cccs3)cc2)n(C)n1 (stereo not drawn) | 12 | 4
Cc1cccc(CO[C@]2(C(=O)NCCCn3ccnc3)CC(OCc3cccc(C(F)(F)F)c3)[C@H](O)[C@H](O)C2)c1 (stereo partly drawn) | 4 | 10
Cc1ccnc(NC(=O)c2cc(Cl)c[nH]2)c1 | 3 | 2
O=C1CCCN1CCCn1cnc(-c2ccccc2)c1-c1ncc[nH]1 | 20 | 10
COc1ccccc1OCC1c2ccsc2CCN1C(=O)CN(C(=O)C1CCCC1)C1CC1 (stereo not drawn) | -4 | -1
O=S(=O)(c1cccnc1)N1CCN(c2ncnc3c2nnn3-c2ccccc2)CC1 | -6 | -3
COc1cccc(-c2nc(COC(=O)c3nnn(-c4ccc(C)c(C)c4)c3C)c(C)o2)c1OC | 0 | -12
COCCN(Cc1cc(NC(=O)COC)ccc1N(C)C)C(=O)C1CC1 | 25 | 20
CC1CCCCN1c1nn2cc(C(C)(C)C)nc2s1 (stereo not drawn) | 3 | 1
CN(Cc1nc(C(c2ccccc2)c2ccccc2)no1)CC1Cc2ccccc2O1 (stereo not drawn) | 6 | 5
O=C(c1ccc2c(c1)OCO2)N1CCCC(OCc2cccc(Cl)c2)C1 (stereo not drawn) | -5 | -5
O=C(N1CCN(Cc2nnnn2-c2cccc(F)c2)CC1)C12CC3CC(CC(C3)C1)C2 | -1 | 0
Cc1sc(NC(=O)c2ccco2)c(CN2CCN(c3ccccn3)CC2)c1C | -3 | -8
C=CCNC(=O)c1ccccc1N1CCC(NC(=O)c2ccc(Cl)cc2Cl)CC1 | 0 | 6
Nc1cccc(Cl)c1Sc1ccccn1 | 14 | 11
O=C(c1cccc(-n2cccc2)c1)N1CCN(C(=O)c2ccco2)CC1 | 11 | 9
CCOc1ccccc1NC(=O)CC(=O)N1CCCC1c1nc(C)no1 (stereo not drawn) | 13 | 10
Cc1ccccc1CN1CCC(CN(CC2CCCO2)C(=O)c2ocnc2C)CC1 (stereo not drawn) | 12 | 6
O=S1(=O)NC2(CCN(Cc3ccc(Cl)s3)CC2)Nc2ccccc21 | 0 | 5
CCNC(=O)COC(=O)C1C(C(=O)OCC)=C(C)NC(C)=C1C(=O)OCC | 0 | -6
COc1cccc2c1OCCCN(C(=O)c1cc(C3CC3)[nH]n1)C2 | 12 | 9
Cc1c(C)c(C)c(S(=O)(=O)N2CCS(=O)C(C)(C)C2)c(C)c1C (stereo not drawn) | -10 | -9
CC1(C(=O)NS(=O)(=O)Cc2ccccc2C(F)(F)F)CCN1C(=O)CC1CCCCC1 (stereo not drawn) | 6 | 3
COc1ccc(NC(=O)Cn2c(-c3nnc(C)o3)cc3ccccc32)cc1 | 9 | 8
Cc1cccc(-c2ncc(CN3CCN(CCc4ccncc4)CC3)cn2)c1 | 12 | 7
CC(C)(C)C(=O)NC(NC(=S)Nc1ccccc1O)C(Cl)(Cl)Cl (stereo not drawn) | -12 | -21
CCc1ccc(C2CC(=O)Nc3c2c(C)nn3-c2ccc(Cl)nn2)cc1 (stereo not drawn) | -14 | -18
CC1(C)C2=C(CCCC2=O)OC(=N)C1C#N (stereo not drawn) | 38 | 44
COc1ccc(C)cc1NC(=O)c1cc(-c2ccccc2)nc2ccccc12 | -4 | -12
Cc1cc2nc(NC(=O)C3(C)CCCN(C)C3)[nH]c2cc1C (stereo not drawn) | 0 | 1
COCC1(C(=O)NCCn2ccnn2)CCC1 | 9 | 7
Cc1ccc(C(=O)NNC(=O)c2c(C)nn(C(C)(C)C)c2C)s1 | 2 | 524
CC(C)(C#N)C(=O)N1CCC(c2ncc(-c3ccc(F)c(F)c3)[nH]2)CC1 | -19 | -22
COc1cc(CN2CCNC(=O)C2)c(OC)cc1Br | 11 | 8
CCCc1oc2cc(OC(C)C)c(CC)cc2c(=O)c1-c1ccc2c(c1)OCCCO2 | -11 | -17
CC(=O)N1CCN(c2cccc(C(F)(F)F)c2)C(=O)C1C (stereo not drawn) | 1 | 11
CSc1nnnn1-c1ccccc1 | -1 | -3
CC(C)COCC(O)CN(CCN1CCOCC1)Cc1cccs1 (stereo not drawn) | 20 | 17
COc1ccccc1N1CCN(C2CCCN(C(=O)c3cccc(NC(C)=O)c3)C2)CC1 (stereo not drawn) | 4 | 1
COc1ccc2c(c1)OCC(C(=O)Nc1ccc3[nH]c(=O)[nH]c3c1)C2 (stereo not drawn) | -7 | -6
COC(=O)C(C)(Cc1ccccc1)NC(=O)C(=O)c1ccc(C2CCCCC2)cc1 (stereo not drawn) | -17 | -23
CC(OC(=O)c1ccc(C(C)C)cc1)C(=O)Nc1ccc(S(N)(=O)=O)cc1 (stereo not drawn) | 0 | -1
O=C(CN1C(=O)C2C3C=CC(C3)C2C1=O)Nc1nccs1 (stereo not drawn) | 20&2 | 10&0
O=S(=O)(Cc1ccc(Cl)cc1)c1ccc(NCc2ccc3c(c2)OCO3)nn1 | 1 | -5
COc1cc(NS(=O)(=O)c2cc(F)cc(F)c2)cc(OC)c1 | 7 | 3
COc1ccc2sc(N(CCCN3CCOCC3)C(=O)c3ccc(Br)s3)nc2c1 | 0 | -3
C=CCNS(=O)(=O)c1cccc2nonc12 | 8 | 6
CC(C)N(Cc1nccn1Cc1ccc(C(F)(F)F)cc1)C(=O)c1ccco1 | 17 | 21
CN(C)C1CCCN(C(=O)CCn2cc(Cl)cn2)CC1 (stereo not drawn) | 5 | 5

Continuation:
SMILES | NPYLR7 agonist | NPYLR7 agonist max-min
CCOC(=O)C(C)Sc1ccc2nnc(-c3ccccc3)n2n1 (stereo not drawn) | 5 | 29
COc1ccc(-n2c(C)c([N+](=O)[O-])c3ccc(O)cc32)cc1 | -4 | -8
O=C(CC(Nc1ccc2ccccc2c1)c1ccncc1)c1ccccc1 (stereo not drawn) | -4 | -6
CC1CCCN1Cc1cccc(C(=O)Nc2ccc3ncccc3c2)c1 (stereo not drawn) | -7 | -6
S=c1nc(COc2ccc(Cl)cc2)[nH][nH]1 | 2 | 8
CCOc1cc(/C=N\Nc2nc(C)cc(COC)c2C#N)cc(Br)c1O | -10 | -15
COc1cc(C(=O)N(C)Cc2ccc(OC(F)F)cc2)cc2c1OCCO2 | 4 | 0
Cc1nc(-c2ccc(S(=O)(=O)N3CCN(c4ccccc4)CC3)s2)cs1 | -3 | -6
N#Cc1cccc(CNC(=O)N2CCC(c3cccc4ccccc34)CC2)c1 | 1 | -3
CC(CNC(=O)c1cccc(C(N)=O)c1)Oc1cccc(Cl)c1 (stereo not drawn) | 1 | 0
OCc1csc(N2CCCC(CO)(CCc3ccccc3)C2)n1 (stereo not drawn) | -1 | -1
COc1cc(C2CC(=O)Nc3c2cnn3C)c(OC)cc1SC (stereo not drawn) | 7 | 6
O=C(Cc1ccc(F)cc1)N1CCN(c2ccc3nccnc3n2)CC1 | 13 | 11
COC(=O)c1ccc(Cn2c(C)c(C(=O)NCc3ccccc3C(F)(F)F)sc2=O)o1 | 6 | 2
CCCCN(CC(=O)N1c2ccccc2-n2cccc2C1c1ccc(Cl)cc1)C(=O)NCc1ccccc1 (stereo not drawn) | -4 | 2
C=CCOc1c(Br)cc(/C=N\NC(=O)COc2nc(C)c(Br)c(COC)c2C#N)cc1OC | -4 | 1
Cc1nnc(SCC(=O)Nc2ccc([N+](=O)[O-])cc2)n(N)c1=O | -4 | 3
Cc1nc2c(=O)[nH]nc(-c3ccccc3)c2s1 | -11 | -12
COc1ccc(CCN(Cc2ccc(C)o2)C(=O)CN(CCN2CCOCC2)C(=O)c2ccccc2C)cc1OC | -4 | -6
O=C(C1CC=CCC1)N1CCN(Cc2ccc(-c3noc(-c4cccc(C(F)(F)F)c4)n3)cc2)CC1 (stereo not drawn) | -5 | -9
CC1(C)CCCC2=C1CC1C(=O)NC(=O)C1C2 (stereo not drawn) | -10 | -14
CC(=O)c1ccc(N2CCN(C(=O)C3CCCCC3C(=O)N3CCc4c([nH]c5ccccc45)C3)CC2)cc1 (stereo not drawn) | -16 | -20
CCCN1CCC(C)(C(=O)Nc2cnc3ccccc3c2)C1 (stereo not drawn) | 1 | -2
COC(=O)C1C(=O)OC(C)(C)C1C(C)C(=O)c1ccc(C)cc1C (stereo not drawn) | 0 | -1
CCOC(=O)c1c(C)n(O)c2ccccc2c1=O | -3 | -3
CC(C)CC1=NN2C(=N)/C(=C/c3ccc(C(C)C)cc3)C(=O)N=C2S1 | 0 | 0
Fc1cccc(Nc2cc3c(cn2)ncn3Cc2ccccc2)c1 | 7 | 0
COCCN(CCOC)C(=O)CCCc1cn(S(=O)(=O)c2cccs2)c2ccccc12 | -4 | -4
Cc1cnc(NC(=O)CNC(=O)C(C)(C)C)s1 | 6 | 9
O=C(NCC1CCCN(Cc2nc(-c3ccccc3)cs2)C1)c1cccs1 (stereo not drawn) | 8&15 | -1&10
COCCNc1nc(Oc2cncc(Cl)c2)c2sccc2n1 | 6 | 0
CC(C)c1cc(=O)[nH]c(-n2nc(-c3cccs3)cc2NC(=O)Cc2ccc(F)cc2)n1 | 3 | 1
Cc1ccc(NC(=O)CSc2nc3[nH]ncc3c(=O)[nH]2)cc1Cl | -16 | -9
COC(=O)c1cn(C(=O)COc2cc(C)ccc2C)c2ccccc12 | 3 | 1
COCCCN(Cc1csc(COc2cc(C)cc(C)c2)n1)C(=O)c1ccccc1F | 3 | 17
CCN1CCN(CCCCSc2ccccc2)CC1 | -1 | -3
COC(=O)c1c(NC(=O)C2CCCO2)c2cc(NC(C)CCO)cnc2n1CCc1ccccc1 (stereo not drawn) | 4 | 0
CC(=O)OC1C(=O)C=CC2C(C)=CC(=O)OC21 (stereo not drawn) | -1 | -6
COc1ccc(C(=O)CSc2ccc3nnc(CCNC(=O)c4ccc(OC)cc4)n3n2)cc1 | 1 | -10
CCOC(=O)CC(=O)N1CCC(c2nc(-c3ccc(Cl)cc3F)no2)CC1 | 4 | 1
O=C(CSc1ncnc2c1nnn2Cc1ccccc1F)NCCc1ccccc1 | 0 | 17
COCCCNc1ccc2c(-c3ccccc3F)noc2n1 | 4 | 1
O=C(Cn1c(CO)cnc1SCC(=O)N1CCc2ccccc21)NCc1ccccc1 | 3 | 0
COC(=O)C1=C(C)NC2=C(C(=O)CC(c3ccccc3)C2)C1c1ccc(OC)cc1 (stereo not drawn) | -3 | -6
CCCc1nn(-c2ccccc2)c(CC)c1C(=O)NCCN(C)C | 12 | 17
CCCc1nc2cccc(C)n2c1Nc1c(C)cccc1C | 15 | 21
Cc1c(C(=O)NCc2ccc3c(c2)OCCO3)sc(=O)n1CC(=O)c1ccc(Cl)cc1 | -6 | -4
CC(C)(C)OC(=O)N1CCN(CCNC(=O)CCn2ccc(=O)[nH]c2=O)CC1 | 2 | -1
CCc1cccc(NC(=O)Cn2nc(SC)c(-c3nc(-c4ccc5c(c4)OCO5)no3)c2N)c1 | 23 | 14

Entries listed so far with an aryl thioether with sulfur outside any ring:
SMILES | NPYLR7 agonist | NPYLR7 agonist max-min
COc1cc(OC)c(OC)cc1/C=N\NC(=O)CSc1nc2ccccc2[nH]1 | 7 | 6
CCn1c(SCc2ccc(C(=O)NCc3ccco3)cc2)nnc1-c1ccccc1Cl | -2 | 0
Nc1cccc(Cl)c1Sc1ccccn1 | 14 | 11
CSc1nnnn1-c1ccccc1 | -1 | -3
CCOC(=O)C(C)Sc1ccc2nnc(-c3ccccc3)n2n1 (stereo not drawn) | 5 | 29
COc1cc(C2CC(=O)Nc3c2cnn3C)c(OC)cc1SC (stereo not drawn) | 7 | 6
Cc1nnc(SCC(=O)Nc2ccc([N+](=O)[O-])cc2)n(N)c1=O | -4 | 3
Cc1ccc(NC(=O)CSc2nc3[nH]ncc3c(=O)[nH]2)cc1Cl | -16 | -9
CCN1CCN(CCCCSc2ccccc2)CC1 | -1 | -3
COc1ccc(C(=O)CSc2ccc3nnc(CCNC(=O)c4ccc(OC)cc4)n3n2)cc1 | 1 | -10
O=C(CSc1ncnc2c1nnn2Cc1ccccc1F)NCCc1ccccc1 | 0 | 17
O=C(Cn1c(CO)cnc1SCC(=O)N1CCc2ccccc21)NCc1ccccc1 | 3 | 0
CCc1cccc(NC(=O)Cn2nc(SC)c(-c3nc(-c4ccc5c(c4)OCO5)no3)c2N)c1 | 23 | 14

Not all compounds are listed; rates above refer to the full screens.
